# T cruzi inh – T. cruzi replication inhibition; inhibition, % (test concentration not listed); AID 1885; 300,000 compounds, 1.4% hits; T. cruzi beta-gal in NIH3T3, luminescence, 90 h;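 active = mean inhibition across valid replicates above about 55%, limit read from the data; inconclusive = mean below that limit but half or more replicates reach it; inactive = mean below it, under half of replicates reach it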;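 note: signal also drops with host cell toxicity which is not excluded here; 0% = plate median of DMSO wells and 100% = zero luminescence signal; higher percent means less beta-gal luminescence so fewer parasites; stock transfer was 50 nL into about 50 µL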
# AF4-AF9 inh – MLL-AF4/AF9 protein interaction inhibition. 350,000 compounds, 0.47% hits. inhibition, % at 10 µM. AlphaScreen, biotin-AF4 peptide binding to FLAG-AF9. P42568;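 active = every replicate reaching a set inhibition limit, whatever the replicate mean, cut at about 25% in these data; inconclusive = mean inhibition reaches that limit but some replicates miss it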;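 note: 0% = plate neutral control median and 100% = total signal loss; the record names both 10 and 1 µM as test concentration; the first replicate is given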
# Vif A3G – HIV-1 Vif–A3G interaction blockers – biochemical, TR-FRET, GST-Vif 1-94, biotin-A3G peptide, dose response retest, primary screen (AID 1117319). 260,000 compounds, 0.57% hits. TR-FRET GST-Vif / biotin-A3G peptide binding; higher % means a stronger effect; test concentration not given here; strong numbers were not always called active. inhibition, %; hits with a dose series show IC50 in µM;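 active = above the screen mean plus three standard deviations and confirmed in dose response; inconclusive = results disagree or hit not tested in dose response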;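 note: Vif residues 1-94 fused to GST binding biotinylated APOBEC3G peptide 110-148; 0% = full assay without inhibitor and 100% = GST in place of GST-Vif; retest series ran down from 100 µM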
# A1 inh – inhibitors of the anti-apoptotic protein A1, read as caspase activation | MEF A1-2A-BIM cells, Caspase-Glo 3/7 luminescence, 3 h; percent of clofoctol response, vehicle zero | caspase activation, % (no concentration beside the values) | 330,000 compounds, 0.066% hits;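 active = over half of replicate activation scores above 10%, or exactly half above 10 with the replicate mean above 10; inconclusive = replicate mean below 10 yet half the replicates above 10; inactive = over half of replicates below 10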;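 note: wells of about 30 µL received 50 nL stock; many hits fall short of the cut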
# LANA-H2A inh – blocks KSHV LANA binding to histone H2A/H2B; cell-free LANA-H2A/H2B peptide, fluorescence polarization; Q9QR71; AID 2629; 320,000 compounds, 0.6% hits; inhibition, % (test concentration not listed); in the data active = inhibition mostly above about 10%, no sharp cut-off; inactive = mostly below about 6.7%;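 note: stock transfer was 7.5 nL into about 10 µL; 0% = median of vehicle wells and 100% = median of positive control wells; one replicate is shown; the record names a cut of 25% in any replicate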
# Target sequence (Q9QR71 whole entry, looked up): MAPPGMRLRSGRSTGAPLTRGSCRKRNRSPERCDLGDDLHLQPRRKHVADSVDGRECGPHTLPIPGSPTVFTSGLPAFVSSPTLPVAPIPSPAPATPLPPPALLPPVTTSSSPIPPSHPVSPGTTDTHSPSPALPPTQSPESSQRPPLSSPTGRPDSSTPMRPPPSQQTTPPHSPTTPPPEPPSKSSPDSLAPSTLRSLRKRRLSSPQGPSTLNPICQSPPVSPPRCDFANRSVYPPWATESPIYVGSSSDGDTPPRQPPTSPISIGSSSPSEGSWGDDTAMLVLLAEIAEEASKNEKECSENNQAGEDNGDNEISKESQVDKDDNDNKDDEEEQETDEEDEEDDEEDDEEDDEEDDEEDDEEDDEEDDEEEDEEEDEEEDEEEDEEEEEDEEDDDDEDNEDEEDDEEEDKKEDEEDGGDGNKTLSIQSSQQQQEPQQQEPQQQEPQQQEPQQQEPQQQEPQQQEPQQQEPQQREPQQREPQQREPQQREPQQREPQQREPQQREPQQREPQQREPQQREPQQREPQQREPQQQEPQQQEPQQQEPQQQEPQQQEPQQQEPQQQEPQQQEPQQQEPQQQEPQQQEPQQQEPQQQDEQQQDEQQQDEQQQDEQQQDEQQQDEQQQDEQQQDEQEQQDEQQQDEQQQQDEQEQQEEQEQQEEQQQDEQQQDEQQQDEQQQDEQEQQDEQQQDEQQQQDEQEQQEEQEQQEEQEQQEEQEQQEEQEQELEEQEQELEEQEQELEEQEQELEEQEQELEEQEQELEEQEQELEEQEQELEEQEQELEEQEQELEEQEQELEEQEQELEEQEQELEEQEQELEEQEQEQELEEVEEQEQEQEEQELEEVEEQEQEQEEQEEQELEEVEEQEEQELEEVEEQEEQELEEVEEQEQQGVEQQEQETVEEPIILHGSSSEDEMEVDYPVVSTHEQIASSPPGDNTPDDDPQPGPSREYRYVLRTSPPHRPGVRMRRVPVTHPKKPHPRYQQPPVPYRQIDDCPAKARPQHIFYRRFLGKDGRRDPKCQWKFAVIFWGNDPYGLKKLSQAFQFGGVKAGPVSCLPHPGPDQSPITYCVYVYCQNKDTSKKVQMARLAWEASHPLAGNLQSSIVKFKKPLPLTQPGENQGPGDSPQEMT
# Calb FLC – C. albicans growth modulation with fluconazole; C. albicans CaCi-2 (fluconazole-resistant clinical isolate) + fluconazole, Alamar Blue growth, 48 h; growth inhibition, % (test concentration not listed); 300,000 compounds, 0.57% hits;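 active = most replicates above 75%; inconclusive = exactly half above 75%; inactive = most below 75%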;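 note: all wells also contain fluconazole at 8 µg/ml as a sub-toxic cotreatment; 0% = median of DMSO wells and 100% = median of geldanamycin control wells; wells of about 8 µL received 7.5 nL stock; the first replicate is given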
# RanGTP-Impb inh – disruptors of Ran-importin-beta complex formation – biochemical, FRET, CFP-Ran, YFP-importin-beta, homogeneous, primary screen | 300,000 compounds, 1.1% hits | cell-free CFP-Ran/YFP-importin-beta FRET ratio | inhibition, % (test concentration not listed);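 active = most replicates above 15%; inconclusive = exactly half above 15%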;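 note: 0% = DMSO wells and 100% = Ran loaded with GDP instead of GTP; wells of about 40 µL received 100 nL stock; the first replicate is given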
# Beta apoptosis – blocks beta cell apoptosis; INS-1E cytokine-induced death, ATP luminescence, 48 h; percent of positive-control rescue, neutral wells zero; protection from apoptosis, % (no concentration beside the values); 300,000 compounds, 0.8% hits; AID 435005;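 active = all replicates at 75% or more, or half of them and the mean; inconclusive = half reach 75% but not the mean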;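 note: 0% = cytokine-treated negative control wells and 100% = positive control rescue; higher means more ATP so stronger rescue from cytokine killing; wells of about 40 µL received 100 nL stock; the first replicate is given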
# * = called active by the depositor; ? = inconclusive; . = no result given.
# Short forms: A = T cruzi inh; B = AF4-AF9 inh; C = Vif A3G; D = A1 inh; E = LANA-H2A inh; F = Calb FLC; G = RanGTP-Impb inh; H = Beta apoptosis
> O=C(Cn1nnc2ccccc21)NC1CCCCC1
  A: -5	B: .	C: 29%	D: 0.5	E: 0.4	F: -9	G: 2.8	H: -2

> Cc1ccc2nsnc2c1NC(=O)c1ccc([N+](=O)[O-])o1
  A: 8	B: .	C: .	D: 0.1	E: 0.9	F: 4	G: 5.0	H: -37

> CC(C)C(NS(=O)(=O)c1ccc2c(c1)oc(=O)n2C)C(=O)N1CCN(c2ccccc2F)CC1 (stereo not given)
  A: .	B: -6.7	C: 0%	D: 0.1	E: 3.1	F: .	G: .	H: .

> CC(C(=O)N1CCCCC1)N(C)CC(=O)Nc1cccc(F)c1 (stereo not given)
  A: .	B: -0.7	C: 1%	D: 1.2	E: 30*	F: .	G: .	H: -5

> CCCc1cc(C(=O)Nc2cccc([N+](=O)[O-])c2)cs1
  A: 16	B: 2.1	C: .	D: 0.2	E: -1.4	F: -9	G: -1.2	H: 3

> O=C(N/N=C/c1ccncc1)C1CC1C(=O)N/N=C/c1ccncc1 (stereo not given)
  A: -19	B: .	C: 5%	D: -0.2	E: -0.5	F: -3	G: 2.0	H: 0

> Cc1ccc(Oc2ccc(S(=O)(=O)N3CCOCC3)cc2C(N)=O)cc1C
  A: 9	B: -0.6	C: .	D: 0.3	E: -2.0	F: 3	G: 2.7	H: -3

> CC(=O)OCC(=O)[C@@]1(O)CC[C@H]2[C@@H]3CCC4=CC(=O)C=C[C@]4(C)[C@H]3C(=O)C[C@@]21C
  A: 9	B: -8.2	C: -6%	D: 0.2	E: 3.9	F: -5	G: -1.4	H: 2

> O=C(COc1ccc(F)cc1)OCCN1CCOCC1
  A: -2	B: -2.7	C: 5%	D: 0.8	E: 34*	F: -1	G: 6.8	H: 5

> COc1ccc(CCNC(=O)c2c[nH]c3ccccc3c2=O)cc1OC
  A: -1	B: .	C: 20%	D: 0.7	E: 4.2	F: -4	G: 0.1	H: 5

> COc1ccc(OC)c(NS(=O)(=O)c2c(C)nc3sccn3c2=O)c1
  A: -6	B: 1.5	C: .	D: -0.3	E: -3.6	F: 9	G: 2.6	H: 3

> CCc1cccc(CC)c1NC(=O)COC(=O)CC1c2ccccc2CCN1S(=O)(=O)c1ccc(F)cc1 (stereo not given)
  A: 7	B: 0.8	C: .	D: 0.3	E: -1.8	F: -3	G: 2.5	H: 5

> Cc1ccc(NC(=O)CCC(=O)N/N=C/c2cccnc2)cc1
  A: -6	B: 8.1	C: .	D: 0.1	E: 4.0	F: 13	G: -3.9	H: -12

> CCc1cc(=O)oc2cc(C)cc(OCC(=O)NC(Cc3c[nH]c4ccc(O)cc34)C(=O)O)c12 (stereo not given)
  A: 10	B: -0.5	C: .	D: -0.1	E: -6.4	F: 0	G: -1.5	H: -2

> Cc1ccc(C2=N/C(=C/c3cccs3)C(=O)N2Nc2ccccc2)cc1
  A: 44	B: .	C: 19%	D: -0.3	E: -1.0	F: -7	G: -0.6	H: 4

> O=C(COC(=O)Cn1cnc2ccccc2c1=O)Nc1ccc2c(c1)OCO2
  A: -3	B: 0.8	C: .	D: 0.1	E: -2.4	F: 21	G: 5.9	H: ?

> CCC1(c2ccc(F)cc2)NC(=O)N(CC(=O)N2CCOCC2)C1=O (stereo not given)
  A: -5	B: .	C: .	D: 0.9	E: -0.8	F: -9	G: 3.7	H: -3

> COc1ccc(NC(=O)CCNC(=O)Cn2cnc3sc4c(c3c2=O)CCCC4)cc1OC
  A: -2	B: 2.6	C: .	D: 0.7	E: -1.5	F: 1	G: -0.7	H: .

> Cc1cc(NC(=O)c2ccccc2Cl)no1
  A: -9	B: .	C: -6%	D: -0.9	E: 2.6	F: 2	G: 0.3	H: -1

> C/C(=N\NC(=O)c1ccc(Br)cc1)c1cccc(NC(=O)c2cccnc2)c1
  A: -1	B: 1.1	C: 8%	D: 0.6	E: -4.5	F: -17	G: -0.9	H: 1

> O=C1CCC([N+](=O)[O-])C(c2ccccc2Cl)N1 (stereo not given)
  A: -16	B: .	C: -1%	D: -1.0	E: -2.8	F: -1	G: -2.1	H: -3

> O=C(COC(=O)Cc1cccs1)Nc1ccccc1
  A: -2	B: .	C: 11%	D: 0.1	E: -8.7	F: 1	G: -0.2	H: -5

> CC(=O)N(CCC(Cc1ccccc1)c1ccc2c(c1)OCO2)Cc1ccc(Cl)cc1 (stereo not given)
  A: 64*	B: 3.1	C: ?	D: -0.5	E: 3.0	F: 0	G: 7.1	H: 0

> COC(=O)c1c(NC(=O)c2c(-c3ccccc3Cl)noc2C)sc2c1CCC2
  A: 13	B: .	C: 1%	D: -1.6	E: -2.1	F: -2	G: -3.9	H: -3

> COc1ccc2nnc(-c3ccccc3)n2n1
  A: -6	B: .	C: 21%	D: 1.6	E: 1.2	F: -2	G: 0.0	H: 7

# Taken from above.
# `CCc1cc(=O)oc2cc(C)cc(OCC(=O)NC(Cc3c[nH]c4ccc(O)cc34)C(=O)O)c12` (stereo not given) @ LANA-H2A inh = -6.4
# `O=C(COC(=O)Cc1cccs1)Nc1ccccc1` @ A1 inh = 0.1
# `COc1ccc2nnc(-c3ccccc3)n2n1` @ A1 inh = 1.6
# `Cc1cc(NC(=O)c2ccccc2Cl)no1` @ Vif A3G = -6%
# `CC(=O)OCC(=O)[C@@]1(O)CC[C@H]2[C@@H]3CCC4=CC(=O)C=C[C@]4(C)[C@H]3C(=O)C[C@@]21C` @ A1 inh = 0.2

# (continued)
# Short forms: A = T cruzi inh; B = AF4-AF9 inh; C = Vif A3G; D = A1 inh; E = LANA-H2A inh; F = Calb FLC; G = RanGTP-Impb inh; H = Beta apoptosis
> CC12COC3(C(=O)NCCc4ccccc4)CC1CCC32C (stereo not given)
  A: 11	B: 7.3	C: 7%	D: 0.3	E: 6.7	F: -14	G: 0.1	H: -4

> Cc1ccc(NC(=S)N2CCN(C(=O)C3CCCO3)CC2)c(C)c1 (stereo not given)
  A: 1	B: .	C: -2%	D: -0.4	E: 1.1	F: -2	G: 0.1	H: 1

> CC(=O)N/C(=N\OCc1ccc(Br)cc1)c1nonc1NC(C)=O
  A: -20	B: .	C: .	D: 0.6	E: 1.5	F: 7	G: 2.1	H: -2

> COc1cc(NC(=O)c2ccccc2NS(=O)(=O)c2ccc(Cl)s2)cc(OC)c1
  A: -40	B: 0.8	C: -9%	D: -0.2	E: -1.8	F: ?	G: 7.9	H: 111*

> Cc1cc(NC(=O)CCC(=O)N(CC2CCCO2)C(C(=O)NC2CCCC2)c2cccnc2)no1 (stereo not given)
  A: -16	B: .	C: 0%	D: 0.5	E: -3.7	F: 17	G: -4.3	H: 4

> C=CCn1c(CNC(=O)c2cccs2)nnc1SCc1ccc(Cl)cc1Cl
  A: 10	B: .	C: 18%	D: 0.6	E: -2.7	F: ?	G: ?	H: -2

> COc1ccccc1CN1C[C@@H]2C[C@@H](c3[nH]c4c(C)cccc4c3C)N3CCC[C@@]23C1=O
  A: 36	B: 7.8	C: .	D: 0.3	E: -6.7	F: -1	G: ?	H: 6

> COc1ccc2nc(/C=N/NC(=O)[C@@H]3CCCN3C(=O)OC(C)(C)C)ccc2c1
  A: 22	B: .	C: 6%	D: 0.4	E: 0.4	F: 7	G: 4.3	H: -2

> CCOc1ccccc1N(CC(=O)NCCSCc1ccco1)S(=O)(=O)c1ccccc1
  A: 7	B: -12	C: -5%	D: -0.3	E: -0.7	F: -1	G: -0.8	H: .

> O=C(N/N=C/c1cc(Cl)ccc1O)c1ccncc1
  A: 15	B: 15	C: 0%	D: 0.1	E: 4.3	F: -42	G: -2.2	H: 44

> CC1CCc2sc(NC(=O)c3ccc(N4C(=O)CCC4=O)cc3)c(C(N)=O)c2C1 (stereo not given)
  A: 4	B: -0.3	C: .	D: -0.6	E: 3.5	F: 4	G: 2.8	H: -2

> N=C(N)N1CCc2ccccc2C1
  A: -13	B: .	C: .	D: -0.3	E: -2.0	F: -1	G: 0.0	H: -13

> Cc1ccc(C(O)CCc2ccc(N)cc2)cc1 (stereo not given)
  A: 24	B: -1.6	C: 1%	D: 0.0	E: -0.6	F: -6	G: 1.0	H: -2

> COCCNc1nnc(SCC(=O)c2c[nH]c3ccccc23)s1
  A: -13	B: .	C: .	D: 0.3	E: -2.2	F: -5	G: 2.0	H: -4

> COc1ccc(-c2cc(C(=O)N3CCN(c4ccc(F)cc4)CC3)no2)cc1OC
  A: 7	B: -2.8	C: .	D: 0.1	E: 3.0	F: 2	G: 0.3	H: -6

> CCc1cccc(N(C(=O)c2csnn2)C(C(=O)NC2CCCCC2)c2cccnc2)c1 (stereo not given)
  A: 7	B: 0.1	C: .	D: -0.1	E: 1.6	F: 7	G: 0.0	H: 4

> CC(=O)Nc1ccc(OC(=O)c2c(-c3ccccc3Cl)noc2C)cc1
  A: -13	B: .	C: 3%	D: 1.3	E: 0.8	F: 21	G: -1.4	H: -3

> Cc1cccc(C(=O)N2CCCC(N3CCN(Cc4ccc5c(c4)OCO5)CC3)C2)n1 (stereo not given)
  A: -16	B: 0.7	C: .	D: -0.5	E: 2.2	F: 1	G: 1.4	H: 0

> CN(CCCn1c(=S)[nH]c2ncccc2c1=O)Cc1ccccc1
  A: 4	B: .	C: 15%	D: -0.3	E: -3.9	F: -5	G: ?	H: 2

> Cc1nc(=S)c2ccccc2[nH]1
  A: -34	B: .	C: 8%	D: 0.1	E: -2.4	F: 23	G: 5.6	H: -7

> CS(=O)(=O)N1CCN(C(=O)c2ccccc2)C1
  A: -17	B: .	C: -2%	D: 0.0	E: 8.9	F: 12	G: 0.0	H: -6

> CC(C)NS(=O)(=O)c1ccc(NC(=O)Cc2ccsc2)cc1
  A: -13	B: 0.7	C: -9%	D: -0.8	E: 3.0	F: -6	G: 3.0	H: .

> Cc1ccc(N=Cc2c(C)[nH]n(-c3ccccc3)c2=O)nc1
  A: 1	B: 4.6	C: 8%	D: 0.2	E: 0.2	F: 6	G: 0.4	H: -3

> CCOC(=O)/C(C#N)=C/c1ccc(N2CCN(C)CC2)cc1
  A: 7	B: .	C: 0%	D: 0.9	E: -1.3	F: -30	G: 20*	H: -6

> Cc1cc2ncn(CCOc3ccccc3)c2cc1C
  A: 23	B: .	C: -2%	D: -3.1	E: 3.7	F: -8	G: -2.7	H: -4

> Cc1cc(C(=O)N2CCc3c([nH]c4ccccc34)C2c2cccc(Cl)c2)nn1C (stereo not given)
  A: 56*	B: 3.7	C: -1%	D: -0.1	E: 0.7	F: 30	G: 5.1	H: 6

> O=C(O)C1CCCCC1C(=O)Nc1ccc(-c2ccccc2)cc1 (stereo not given)
  A: 16	B: -2.2	C: .	D: -8.5	E: 0.6	F: -5	G: -2.6	H: 3

# Full records, quoted from the list. Order of screens: T cruzi inh, AF4-AF9 inh, Vif A3G, A1 inh, LANA-H2A inh, Calb FLC, RanGTP-Impb inh, Beta apoptosis
# Entry for COc1cc(NC(=O)c2ccccc2NS(=O)(=O)c2ccc(Cl)s2)cc(OC)c1 = -40, 0.8, -9%, -0.2, -1.8, ?, 7.9, 111*
# Entry for CC(=O)Nc1ccc(OC(=O)c2c(-c3ccccc3Cl)noc2C)cc1 = -13, ., 3%, 1.3, 0.8, 21, -1.4, -3

# Assay outcomes from PubChem.
